# Compound activity (PubChem BioAssay)
# Sa growth 42C – S. aureus growth inhibition at 42 and 30 °C, primary screen, LtaS inhibitor project, RN4220, two temperatures; OD600, 20 h, 42 °C; active compounds read low; relative growth, % (no concentration beside the values); actives 0.53% (n = 170,000); AID 720641, 2013;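 active means growth at 42 °C up to 50% and 20 or more points under that at 30 °C, or under 10% at both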;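 further: 300 nL library stock went into each well; scaled to the means of positive and negative controls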
# HCMV NEC inh – inhibitors of HCMV UL50-UL53 interaction, biochemical, HTRF. normalized percent inhibition. inhibition, % (concentration not given with the values). actives 0.15% (n = 190,000). AID 1918969, 2023;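 active means both replicates at 50% or more, plus weaker picks with an unusually low signal ratio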;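 further: stock transfer was 100 nL into about 20 µL; 0% = negative control wells and 100% = wells with untagged competitor protein; inactives centre near -12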
# GIV-Gai inh – inhibitors of GIV peptide binding to Galpha-i3, primary screen, biochemical, fluorescence polarization, FITC-GIV GBA peptide, rat Galphai3; actives 0.42% (n = 210,000); 90 min; active compounds read low; scaled: aluminum fluoride 0%, vehicle 100%; percent of control (FP), % (concentration not given with the values); Guanine nucleotide-binding protein G(i) subunit alpha-3 (Rattus norvegicus), P08753;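 active means replicate mean at 85% of control or lower, very high polarization wells dropped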;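 further: wells of about 15 µL received 100 nL stock; the first replicate is given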
# Target sequence (P08753 whole entry, looked up): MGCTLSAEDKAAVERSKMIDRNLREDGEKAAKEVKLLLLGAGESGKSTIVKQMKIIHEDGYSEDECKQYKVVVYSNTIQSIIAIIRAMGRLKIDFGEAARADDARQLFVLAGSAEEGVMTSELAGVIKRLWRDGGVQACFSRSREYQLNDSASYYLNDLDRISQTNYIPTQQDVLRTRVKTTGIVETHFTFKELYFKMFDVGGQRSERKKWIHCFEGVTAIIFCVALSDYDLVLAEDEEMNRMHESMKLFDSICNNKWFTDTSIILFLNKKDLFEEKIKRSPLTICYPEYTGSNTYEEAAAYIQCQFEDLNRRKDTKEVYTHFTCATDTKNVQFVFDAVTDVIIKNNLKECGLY
# Sa growth 42C second temp – also measured in Sa growth 42C; calls as there; relative growth, %; measured here: growth at 30 °C;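 optical density after 20 h as mean of two plates; 100% = untreated growth and lower means inhibition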
# Numbers without * were called inactive; x = not tested or not shown; & = joins results of further samples.
SMILES,Sa growth 42C,Sa growth 42C second temp,HCMV NEC inh,GIV-Gai inh
c1ccn2c(CNC3CC4CC3C3CCCC43)nnc2c1 (centres undefined),119.2,90.6,-5.5,x
O=C(CC1SC(=NC2CC3C=CC2C3)NC1=O)Nc1cc(Cl)ccc1Cl (centres undefined),90.2,80.2,-13.9,104.2
COc1ccc(C(CC(=O)O)N2Cc3ccccc3C2=O)cc1OC (centres undefined),x,x,8.4,101.3
Cc1cccc(-c2nc(Cn3c(SCc4cc(C)ccc4C)nc4ccncc43)c(C)o2)c1,103.2,80.1,-28.6,101.8
COc1cc(OC)c(NC(=O)Cn2nnc(C(=O)O)c2C(=O)O)cc1Cl,96.9,90.5,-8.7&-4.9,102.0&96.1
CCOC(=O)N1CCC(NC(=O)c2ccc3c(c2)N(Cc2ccccc2)C(=O)c2ccccc2S3=O)CC1 (centres undefined),93.3,100.2,-6.7,98.0
Cc1ccc(-c2nc(C#N)c(NCCCN3CCCC3=O)o2)cc1,101.3,98.6,10.9,x
O=C(Cc1ccccc1)NC1CCS(=O)(=O)C1 (centres undefined),102.7,93.2,10.2,104.7
Cc1cc(C)cc(NC(=O)Cn2cc(C(=O)C3CCCCC3)c3ccccc32)c1,92.6,88.1,-19.7,100.7
CCN1CCCC1CNC(=O)c1cc2c(s1)-c1ccccc1SC2 (centres undefined),87.2,60.4,x,105.9
O=C(Cn1c(=O)c(CNc2ccccc2)cc2cc3c(cc21)OCCO3)Nc1ccccc1Cl,94.2,97.2,x,90.8
COC(=O)CN1C=C(C(=O)OC)C(c2cccc(Cl)c2)C(C(=O)OC)=C1,90.9,81.9,-25.1,104.1
Cn1c(=O)c2c(nc(NCc3ccc4c(c3)OCO4)n2Cc2ccc(F)cc2)n(C)c1=O,x,x,-32.2,103.2
CCOC(=O)c1ccc(CN(Cc2ccc(C)cc2)S(=O)(=O)c2ccc(F)c(C(=O)Nc3ccc(C)c(F)c3)c2)cc1,116.9,78.0,x,98.8
COc1ccc(N(C(=O)c2ccccc2)S(=O)(=O)c2ccc(Cl)cc2)cc1,116.7,86.1,x,104.2
COc1cc(NC(=O)COc2cc(C)c(Cl)c(C)c2)ccc1NC(=O)c1cc2ccccc2o1,86.5,87.0,x,106.7
COC(=O)c1c(C)oc2ccc(N(C(=O)c3ccncc3)S(=O)(=O)c3cc(C)ccc3C)cc12,110.9,93.5,-14.1,105.6
COCCN1C(=O)c2ccccc2C(C(=O)NC2CCCC2)C1c1c[nH]c2ccccc12 (centres undefined),88.2,89.0,x,101.6
CCOC(=O)c1ccc(S(=O)(=O)Nc2nn3cnnc3s2)cc1,69.7,89.6,-5.5,x
CC(C)NC(=O)c1nn(-c2ccccc2F)nc1CO,105.7,91.8,-5.0,99.9
CCC(=O)Nc1ccc(-c2cn3cccnc3n2)cc1,84.2,99.6,-0.4,102.5
O=C(Cc1cccs1)Nc1nccs1,105.1,81.4,-16.4,103.8
N#Cc1cnn(C(=O)c2ccc(NS(=O)(=O)c3cccs3)cc2)c1N,92.1,88.4,-22.5,x
O=C(O)C1CC=CCC1C(=O)N1CCCC1 (centres undefined),108.2,90.2,6.3,105.8
O=C(Nc1ccc(C(=O)N2CCOCC2)cc1)c1ccc2c(c1)OCO2,100.9,102.9,6.6,103.8

# Part of the list above in order of molecular weight, smallest number first.
SMILES,Sa growth 42C,Sa growth 42C second temp,HCMV NEC inh,GIV-Gai inh
CC(C)NC(=O)c1nn(-c2ccccc2F)nc1CO,105.7,91.8,-5.0,99.9
c1ccn2c(CNC3CC4CC3C3CCCC43)nnc2c1 (centres undefined),119.2,90.6,-5.5,x
Cc1ccc(-c2nc(C#N)c(NCCCN3CCCC3=O)o2)cc1,101.3,98.6,10.9,x
N#Cc1cnn(C(=O)c2ccc(NS(=O)(=O)c3cccs3)cc2)c1N,92.1,88.4,-22.5,x
COc1cc(OC)c(NC(=O)Cn2nnc(C(=O)O)c2C(=O)O)cc1Cl,96.9,90.5,-8.7&-4.9,102.0&96.1
COC(=O)c1c(C)oc2ccc(N(C(=O)c3ccncc3)S(=O)(=O)c3cc(C)ccc3C)cc12,110.9,93.5,-14.1,105.6

# Profiles as entered above. Screens in order: Sa growth 42C, Sa growth 42C second temp, HCMV NEC inh, GIV-Gai inh
# `N#Cc1cnn(C(=O)c2ccc(NS(=O)(=O)c3cccs3)cc2)c1N` in the list: 92.1, 88.4, -22.5, x
# `Cn1c(=O)c2c(nc(NCc3ccc4c(c3)OCO4)n2Cc2ccc(F)cc2)n(C)c1=O` in the list: x, x, -32.2, 103.2
# `COc1ccc(N(C(=O)c2ccccc2)S(=O)(=O)c2ccc(Cl)cc2)cc1` in the list: 116.7, 86.1, x, 104.2

# Next section:
SMILES,Sa growth 42C,Sa growth 42C second temp,HCMV NEC inh,GIV-Gai inh
Cc1[nH]c(C(=O)N2CCCC(C(=O)NC3CCCC3)C2)c(C)c1C(=O)OC(C)C (centres undefined),x,x,-17.3,98.1
CCCCC1=NN(C(=O)C2CC2)C(O)(C(F)(F)F)C1 (centres undefined),124.9,83.2,x,104.7
O=C(/C=C/c1ccc(F)cc1)Nc1nc2n(n1)C(c1ccc(Cl)cc1)C=C(c1ccccc1)N2 (centres undefined),96.1,55.4,-4.8,115.0
Cc1nnc(-c2cc3ccccc3n2CC(=O)N2CCCCC2)o1,x,x,-11.0,100.7
COc1ccc(CNC(=O)C(C)C2Sc3ccccc3N(Cc3ccccc3Cl)C2=O)cc1 (centres undefined),x,x,20.6,98.6
Cc1ccccc1-c1nc(CN2CCC(C(=O)NCc3ccco3)CC2)c(C)o1,96.8,90.1,x,103.8
CN(C)Cc1cccc(C(=O)O)c1,87.7,89.4,-3.9,101.9
CCSc1nnc(NC(=O)CCc2nc3ccccc3s2)s1,89.9,95.0,13.3,x
COc1cccc(N(C(=O)/C=C/c2ccco2)c2nc3ccccc3s2)c1,96.0,98.5,-5.3,x
O=C(CCS(=O)(=O)c1cc(Br)cc2c1N(C(=O)C1CC1)CC2)N1CCN(c2cccc(Cl)c2)CC1,105.0,86.4,-6.1,107.3
O=C1OC2(CCCCC2)OC(=O)C1=Cc1ccc2c(c1)OCO2,85.3,85.8,24.7,98.5
CN(C)C(=O)COc1ccc2c3c(c(=O)oc2c1)CCC3,93.3,90.1,-1.6,x
Cc1ccn2c(=O)c(C(=O)NCCc3ccc(S(N)(=O)=O)cc3)c(O)nc2c1,71.3,86.5,-2.0,92.2
O=C1c2ccccc2NC(c2cccc([N+](=O)[O-])c2)N1c1ccc(Br)cc1 (centres undefined),x,x,-25.3,97.4
Cc1ccc2[nH]cc(NC(=O)N3CCCCC3)c(=O)c2c1,94.2,81.4,-25.9,102.9
Cc1cc(C(=O)CSc2n[nH]c(N)n2)c(C)n1-c1cccc(S(=O)(=O)N2CCOCC2)c1,100.4,84.9,-25.2,x
Cc1ccc(NC(=O)CCn2c(=O)[nH]c3ccsc3c2=O)cc1,102.2,86.0,x,97.6
COc1ccc(/C=C2\C(=O)N(C)c3ccccc32)cc1O,59.2,27.5,-81.6,x
CCc1cccc(C)c1NC(=O)CN1C(=O)c2c(c3ccccc3n2C)C1c1ccc(OC)cc1 (centres undefined),86.1,75.3,x,102.7
O=C(Nc1cccc2ccccc12)N1CCC(n2c(=O)[nH]c3ccccc32)CC1,94.9,80.0,-14.3,108.2
CCCn1c(=O)c2sccc2n2c(SCc3ccc(Br)cc3)nnc12,x,x,-13.5,105.9
CCOc1ccc(C(=O)c2cn(CC(=O)Nc3ccc4c(c3)OCO4)c3ccc(OC)cc3c2=O)cc1,106.8,87.0,-40.8,97.3
O=S(=O)(c1ccc(Cl)cc1)N1CCC(c2ccncc2)CC1,102.1,96.6,x,104.4&101.3
O=C(Nc1ccc(Br)cc1)c1cc(-c2cccs2)nc2ccccc12,107.0,93.7,-28.2,105.7
COc1cc(OC)c2c(O)cc(=O)[nH]c2c1,91.8,112.0,-13.4,103.4
# More records follow.
SMILES,Sa growth 42C,Sa growth 42C second temp,HCMV NEC inh,GIV-Gai inh
N#CC1(C#N)C2CCCCC23OC(=N)C1(C#N)C(c1cccnc1)O3 (centres undefined),93.7,80.1,-70.0,x
CCN(CC)C(=O)CSc1nc2ccccc2c(=O)n1CC,90.0,89.9,-24.3,98.5
Cc1ccc(NC(=O)C2=CSCCO2)cc1,94.9,89.0,-17.7&-38.6,104.3&105.1
CC(C)Cc1nnc(C(=O)Nc2ccc(C(=O)NCc3ccccn3)cc2)s1,x,x,-6.5,96.8
COC(=O)c1ccc2[nH]c3c(c2c1)CCCC3,82.8,78.1,-15.2,94.3
CC(C)Oc1ccc(NC(=O)c2cc3ccccc3o2)cc1,87.3,89.7,1.7,101.3
Cc1ccc(C)c(N2CCN(c3nc4ccccc4nc3C(F)(F)F)CC2)c1,x,x,9.9,104.4
CC1CCC(C(=O)Nc2cc3c(cc2N2CCCCC2)n(C)c(=O)c(=O)n3C)CC1 (centres undefined),111.3,98.1,-1.4,105.7
Cc1cccc(NNC(=O)C2CCCCC2)c1,91.4,86.6,-16.8,x
COc1ccc(N(C(=O)c2ccncc2)S(=O)(=O)c2cccs2)cc1,103.9,105.4,17.8,105.3
CN(C)c1ccc(-c2nc(-c3ccccn3)no2)cc1[N+](=O)[O-],84.0,79.7,-78.6,96.0
Cc1cc(C(=O)COc2ncnc3c2cnn3-c2ccccc2)c(C)n1C1CC1,113.9,99.4,9.3,x
COc1cccc(OC)c1C(=O)N1CCN(Cc2ccccc2F)CC1,93.3,84.5,-20.1,98.6
COc1ccc(CNC(=O)CSc2nc(-c3ccc(OC)c(OC)c3)cc(C(F)(F)F)n2)cc1,85.6,96.0,-10.3,98.6
CC(C)c1ccc(N2C(=O)CSC23C(=O)N(Cc2ccccc2F)c2ccccc23)cc1 (centres undefined),109.9,101.8,x,102.6
O=C(Nc1ccc(Cl)cc1Cl)C1CC(=O)N(C2CCCCC2)C1 (centres undefined),100.7,91.1,-20.2,x
CC(=O)Nc1ccc(NC(=O)CCC2CCCC2)cc1,93.9,98.7,-1.3,99.7
O=C(NCc1ccncc1)/C(=C/c1ccc(Cl)cc1)c1ccc(F)cc1,96.4,94.4,-31.4,x
COc1cccc(N2CCN(C(=O)CCCn3nnc4cc(S(=O)(=O)N(C)C)ccc43)CC2)c1,x,x,-11.5,105.4
CCc1sc(Nc2cccc(Cl)c2)nc1-c1cc2cccc(OC)c2oc1=O,90.8,77.3,x,101.7
COc1ccc(CCC(=O)N2C(=O)c3cccc(N)c3C2=O)cc1OC,72.0,81.3,-32.6,x
CN(C)S(=O)(=O)c1ccc(C(=O)NCc2ccccn2)cc1,109.9,93.1,2.7,x
CSc1cccc(NC(=O)C2CCN(S(=O)(=O)c3ccc4c(c3)CCCN4C(=O)C3CCC3)CC2)c1,126.2,98.2,x,100.4
COc1ccc(-c2nc3ccccc3o2)cc1NC(=O)c1cc(Br)ccc1OC,95.9,88.6,-63.7,109.2
CCNc1nc(NC(C)C)nc(NC(N)NOC)n1 (centres undefined),120.3,99.9,-3.0,103.2
# Other compounds follow.
SMILES,Sa growth 42C,Sa growth 42C second temp,HCMV NEC inh,GIV-Gai inh
CCOc1ccc(NC(=O)C2CCCN(S(=O)(=O)c3cccc4nonc34)C2)cc1 (centres undefined),108.4,95.0,-5.0,109.1
CCOc1ccccc1NC(=O)N1CCN(S(=O)(=O)c2ccc3c(c2)NC(=O)CO3)CC1,x,x,-20.2,105.9
COc1ccc2[nH]c3c(c2c1)CCNC3c1cccc(O)c1 (centres undefined),x,x,8.6,103.3
CC(C)c1ccc(-c2noc(SCC(=O)N3CCN(c4ccc(F)cc4)CC3)n2)cc1,102.9,96.3,-10.2,105.4&101.4
COC(=O)c1cc(S(=O)(=O)/C=C/c2ccccc2)c(Cl)cc1Cl,119.2,85.0,x,106.0
CC(C)(C)c1cc(C(=O)/C=C2/NC(=O)CS2)no1,107.4,106.3,5.8,101.8
CCCN(Cc1nnc(-c2ccccc2Cl)o1)C(=O)c1ccc2[nH]c(C)c(C)c2c1,83.2,84.5,-9.6,x
Cc1cc(C)nc(NS(=O)(=O)c2ccc(NC(=O)c3ccc(Br)cc3F)cc2)n1,x,x,-4.6,106.5
OC(CN1C2=NCCN2c2ccccc21)c1ccccc1 (centres undefined),x,x,-10.4,102.7&95.3
Cc1cc(C(=O)NCCCN2CCCC2=O)c2c(=O)n(C)c(=O)n(C)c2n1,x,x,-27.2,102.7
O=[N+]([O-])c1ccc(CSc2ncnc3c2ncn3[C@@H]2O[C@H](CO)[C@H](O)C2O)cc1 (some centres undefined),x,x,-143.8,97.4
O=C(c1ccc2c(c1)N(Cc1ccc(Cl)cc1)C(=O)c1ccccc1S2(=O)=O)N1CCCCCC1,109.3,88.3,-11.6,103.1
C/C(N)=C(/C#N)C(=O)CSc1nnc(COc2ccccc2Cl)o1,104.3,98.7,-2.7,x
Cc1cc(N2CCN(C)CC2)nc2ccc(NC(=O)Nc3ccc(Cl)cc3)cc12,79.2,71.0,x,104.2
Cc1ccc2c(COC(=O)c3ccc(S(=O)(=O)NCc4ccco4)cc3)cc(=O)oc2c1,90.3,91.8,-1.2,x
Clc1nnc(N2CCCC2)c2ccccc12,x,x,-67.1,102.3
CCOc1ccc(C(=O)Nc2cc(-c3nc4cc(OC)ccc4o3)ccc2C)cc1[N+](=O)[O-],95.1,90.3,-26.6,101.6
COc1ccc(-c2nnc(C3CCN(S(=O)(=O)c4ccc5nc(-c6ccccc6)[nH]c5c4)CC3)o2)cc1,105.8,97.8,3.8,107.6
